Screening results deposited in PubChem by National Center for Advancing Translational Sciences (NCATS).
2A StopGo: High Throughput Screening for Foot and Mouth Disease Virus Antivirals | human cells with a luciferase reporter of 2A StopGo recoding; control for the full effect not named in the record | hit rate 1.2% among 410,000 | Potency, µM (titrated, usually from 57.9 µM), for inactives: at the highest dose signal change, negative = less light; active = well fitted falling curve with a large enough effect; inconclusive = small, poorly fitted or top-dose-only effect; inactive = no such curve, though single readings can be large or run the other way; tested in HEK293T cells; note: nearly all actives have a fitted effect of over 45% in size; luciferase light after 4 h
Cruzain inh noDet: qHTS Assay for Promiscuous and Specific Inhibitors of Cruzain (without detergent). Cruzipain (Trypanosoma cruzi), P25779. purified cruzain, Z-FR-AMC fluorescence, no detergent. Potency, µM, without a hit: max response, negative = inhibition, usual class: inhibitors. hit rate 2.3% among 200,000. AID 1476, 2009;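 note: plate controls were enzyme without inhibitor for no effect and buffer without enzyme for full effect; nearly all actives have a fitted effect of over 40% in size; top concentration of the series not given in the record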
Target sequence (P25779 123-467 limits assumed): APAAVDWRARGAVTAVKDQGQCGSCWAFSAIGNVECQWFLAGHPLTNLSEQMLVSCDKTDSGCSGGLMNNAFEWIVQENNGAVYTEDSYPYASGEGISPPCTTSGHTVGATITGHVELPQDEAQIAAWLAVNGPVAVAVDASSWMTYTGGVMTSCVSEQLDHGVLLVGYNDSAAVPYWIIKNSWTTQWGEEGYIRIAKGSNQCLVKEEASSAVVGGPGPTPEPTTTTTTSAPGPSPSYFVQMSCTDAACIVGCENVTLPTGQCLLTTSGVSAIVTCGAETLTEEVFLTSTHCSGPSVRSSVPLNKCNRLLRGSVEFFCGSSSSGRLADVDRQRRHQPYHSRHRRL
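Purified cruzain at 1.5 nM, pre-incubated 15 min with compound at room temperature in 100 mM sodium acetate pH 5.5, 5 mM DTT, 0.00005% Triton X-100. Reaction started with 2 uM Z-FR-AMC; AMC fluorescence increase over 60 s gives rate.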
Cruzain Triton: qHTS Assay for Promiscuous and Specific Inhibitors of Cruzain (with detergent). Cruzipain (Trypanosoma cruzi), P25779. purified cruzain, Z-FR-AMC fluorescence, 0.01% Triton. Potency, µM, inactives show max response, negative = inhibition, hits mostly inhibitors. hit rate 0.43% among 200,000. AID 1478, 2009;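 note: plate controls were neutral wells for no effect and buffer without enzyme for full effect; nearly all actives have a fitted effect of over 40% in size; top concentration of the series not given in the record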
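Compounds were screened in titration against cruzain (1.5 nM) with 0.01% Triton X-100 to counter colloidal aggregation. Activity was the AMC fluorescence increase over 60 s after adding 2 uM Z-FR-AMC at pH 5.5.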
An asterisk follows results filed as active; ? = inconclusive; & = joins results of further samples; [ ] = remark or other dose. Unless noted, calls come from the whole dose curve; as a rule, active = well fitted curve in the direction sought with a large enough effect; inconclusive = small, poorly fitted or top-dose-only effect, or another doubt; inactive = no such curve, though single readings can be large; an effect the other way counts as inactive or inconclusive. Unless noted, % is set by controls: 0 for no effect and ±100 for the full control effect; potency is the fitted concentration of half-maximal effect.

SMILES	2A StopGo	Cruzain inh noDet	Cruzain Triton
O=C(Nc1ccccc1)N1CCCC2(CCN(C(=O)c3cc(C(F)(F)F)cc(C(F)(F)F)c3)CC2)C1	6%	?	-6.2%
COC(=O)N1CCC2(CCN(Cc3ccccc3)CC2)CC1	-7%	-7%	1.5%
CN(C)C(=O)c1ccc(-c2cncnc2NCc2ccccc2)cc1	-24%	9%	-2.4%
CC(C)=CCC1=C(O)[C@](O)(CC=C(C)C)C(=O)C(C(=O)CC(C)C)=C1O	-9%	15%	-4.7%
COC(=O)N1CCC2(CCCN(C(c3ccccc3)c3ccccc3)C2)CC1	?	-4%	-0.3%
COc1cc2c(cc1OC)-c1cc3nc4ccccc4nc3n1C(C)(C)C2	-25%	?	-3.2%
CN(C)c1ncc2ncc(=O)n(C[C@H]3CCCO3)c2n1	-9%	-8%	-10%
CN1CCN(c2cc(-c3ccccc3Cl)ncn2)CC1	-7%	-14%	4.6%
COc1ccc(CNc2ccnc(-c3ccc(N(C)C)cc3)n2)c(OC)c1	3%	-1%	-1.7%
FC(F)(F)c1ccccc1-c1cncnc1NCCN1CCOCC1	8%	1%	4.9%
COCCn1c(=O)c(-c2cccs2)nc2cncnc21	-16%	2%	-5.1%
O=C(O)c1c2ccccc2cc2ccccc12	6%&-19%	-12%&6%	0.6%&4.2%
O=C(c1cccc(F)c1)N1CCC2(CCCN(Cc3cc(C(F)(F)F)cc(C(F)(F)F)c3)C2)CC1	2%	4%	-1.1%
O=C(CCBr)N1CCN(C(=O)CCBr)CC1	-2%	?	-2.3%
c1ccc(-c2cccc(N3CCC4(CCNCC4)CC3)c2)cc1	-8%	-8%	-4.8%
CC12CCCC(O)(C1)C1CC(C)(C)C1CC2 (stereo not drawn)	0%	1%	-0.6%
Cc1cccc(C(=O)O)c1O	1%	-1%	5.3%
N#Cc1ccccc1-c1cncnc1NCc1cccnc1	12%	1%	-2.7%
CN1CCN(c2ncc3nc(-c4cccs4)c(=O)n(C[C@H]4CCCO4)c3n2)CC1	-18%	14%	-12%
O=C(/C=C/c1ccccc1)c1ccc(O[C@H]2OC(CO)C(O)C(O)C2O)cc1O (stereo partly drawn)	15%	?	-6.1%
CC[N+](CC)(CC)CCOc1ccc(/C=C\c2ccccc2)cc1	-26%	?	1.4%
COc1ccccc1-c1cncnc1NCc1ccccc1	-11%	4%	-2.7%
CCCCOC(=O)c1cc2c(cn1)[nH]c1ccccc12	27%&50%&34%	?	-6.1%
Cc1noc(C)c1C(=O)N1CCC[C@@]2(CCN(C(=O)NC(C)C)C2)C1	-3%	3%	1.4%
CCCc1cc(OC)c2c(c1)OCO2	-4%	-5%	-1.2%
C=C1C[C@]23C[C@@]1(O)CC[C@H]2[C@@]12C=C[C@H](O)C(C)(C(=O)O1)[C@H]2[C@@H]3CC(=O)O	-18%	0%	3.4%
CS(=O)(=O)N1CCC2(CC1)CN(c1ccc(-c3ccccc3)cc1)C2	-24%	-5%	-1.3%
COc1cccc(-c2ccc3ncnc(NCc4ccccc4OC)c3c2)c1	?	3%	2.5%
COc1ccc(Oc2ncc3nc(-c4ccc(Cl)cc4)c(=O)n(C[C@H]4CCCO4)c3n2)cc1	0%	-11%	-0.7%
O=C(NCCCN1CCCCCC1)[C@@H](c1ccccc1)C1CCCCC1	24%	3%	-0.2%
CN(C)C(=O)c1ccc(-c2ccc3ncnc(N(C)Cc4ccco4)c3c2)cc1	-1%	-4%	-3.7%
CC(=O)N1CCC2(CCCN(Cc3ccc(C#N)cc3)C2)CC1	2%	-5%	4.0%
N#Cc1cccc(NC(=O)N2CCCC3(CCN(S(=O)(=O)c4ccccc4)CC3)C2)c1	-11%	-6%	4.0%
O=C1C=CC2=C3c4cc(O)c(O)cc4C[C@]3(O)COC2=C1	-26%	-6%	-0.6%
COC1(C)CCC2OC2(C)CCC2C1CC2(C)C (stereo not drawn)	-2%	1%	4.7%
Cc1noc(C)c1-c1cc(N2CCN(C)CC2)ncn1	-7%	-1%	-0.4%
CO[C@]12CC(COC(=O)c3cncc(Br)c3)CN(C)[C@@H]1Cc1cn(C)c3cccc2c13 (stereo partly drawn)	-14%	2%	4.6%
Cn1cc(-c2nc3cnc(Oc4cccc(Cl)c4)nc3n(CCC#N)c2=O)c2ccccc21	5%	5%	2.5%
COc1ccc(-c2cc(=O)c3ccccc3o2)cc1OC	0%	-7%	-2.9%
O=C(c1ccco1)N1CCC[C@@]2(CCN(c3ncccn3)C2)C1	-9%	-3%	0.0%

3 compounds from above, showing only Cruzain inh noDet and 2A StopGo:
SMILES	Cruzain inh noDet	2A StopGo
COC1(C)CCC2OC2(C)CCC2C1CC2(C)C (stereo not drawn)	1%	-2%
Cc1noc(C)c1-c1cc(N2CCN(C)CC2)ncn1	-1%	-7%
CO[C@]12CC(COC(=O)c3cncc(Br)c3)CN(C)[C@@H]1Cc1cn(C)c3cccc2c13 (stereo partly drawn)	2%	-14%

Structures above containing a furan ring, fused or not, in the order listed:
SMILES	2A StopGo	Cruzain inh noDet	Cruzain Triton
CN(C)C(=O)c1ccc(-c2ccc3ncnc(N(C)Cc4ccco4)c3c2)cc1	-1%	-4%	-3.7%
O=C(c1ccco1)N1CCC[C@@]2(CCN(c3ncccn3)C2)C1	-9%	-3%	0.0%

Single records, from the list above. Values in the order: 2A StopGo, Cruzain inh noDet, Cruzain Triton
COc1ccc(Oc2ncc3nc(-c4ccc(Cl)cc4)c(=O)n(C[C@H]4CCCO4)c3n2)cc1 is listed as 0%, -11%, -0.7%
Cc1noc(C)c1-c1cc(N2CCN(C)CC2)ncn1 is listed as -7%, -1%, -0.4%
CCCc1cc(OC)c2c(c1)OCO2 is listed as -4%, -5%, -1.2%
CC(=O)N1CCC2(CCCN(Cc3ccc(C#N)cc3)C2)CC1 is listed as 2%, -5%, 4.0%

The listing continues:
SMILES	2A StopGo	Cruzain inh noDet	Cruzain Triton
COc1cc(/C=C\c2ccc(OC)cc2OC)cc(OC)c1	17%	9%	0.4%
COc1cccc(Nc2ncc3ncc(=O)n(C)c3n2)c1	14%	-18%	-5.0%
COc1cccc(-c2ccc3ncnc(N4CCN(C)CC4)c3c2)c1	?	-1%	-2.8%
CCCCCCCNS(=O)(=O)c1cccc2c(Cl)cccc12	7%	?	-2.9%
N#Cc1ccccc1-c1ccc2ncnc(NCCN3CCOCC3)c2c1	-5%	4%	-5.8%
NC(CCC(=O)NC(CCSC(CC(=O)O)C(=O)O)C(=O)NCC(=O)O)C(=O)O (stereo not drawn)	-1%	-6%	4.4%
COc1ccc2[nH]cc(CCNc3ncncc3-c3c(C)noc3C)c2c1	-28%	1%	1.8%
CNc1ccnc(-c2ccccc2CN(C)C)n1	-7%	2%	2.9%
COC(=O)N1CCC2(CCCN(Cc3nccs3)C2)CC1	-17%	-3%	-3.9%
N#C/C(=C\c1ccc(O)c(O)c1)C(N)=O	-8%&-19%	-4%	-16%
Nc1nc2c(ncn2C2OC(COC(=O)c3ccccc3)C(OC(=O)c3ccccc3)C2OC(=O)c2ccccc2)c(=O)[nH]1 (stereo not drawn)	?	7.9µM*	-1.0%
Cn1cc(-c2nc3cnc(N4CCNCC4)nc3n(CCC#N)c2=O)c2ccccc21	-3%	-2%	1.8%
C=C(C)CN1CC[C@@]23c4c5ccc(O)c4O[C@H]2c2[nH]c4ccccc4c2C[C@]3(O)[C@@H]1C5	-14%	9%	0.8%
Cn1cccc1C(=O)N1CCC2(CC1)CN(c1ccccn1)C2	-26%	-20%	2.3%
N[C@@H](C(=O)O)c1cc(O)ccc1Cl	-3%	2%	-7.6%
Cc1noc(C)c1-c1cc(NCc2ccccc2)ncn1	-9%	-9%	5.2%
CC1C(=O)OC2C1CC[C@@]1(C)C=CC(=O)[C@@]3(C)O[C@@]213 (stereo partly drawn)	-11%	-4%	4.2%
CS(=O)(=O)N1CCC2(CC1)CN(Cc1ccncc1)C2	-2%	-5%	-0.2%
CC(=O)N[C@@H](C=O)[C@@H](O)[C@H](O)[C@H](O)CO	15%	-7%	1.5%
CCCCCCCCC(=O)NCc1cc(OC)c(O)cc1I	0%	?	-3.7%
COc1ccc(CNc2ncnc3ccc(-c4ccoc4)cc23)c(OC)c1	-2%	-21%	-3.9%
CNc1ncnc2ccc(-c3ccccc3OC)cc12	-23%	-4%	-0.9%
c1cc2c3c(c1)c1c(n3CCNC2)CCCC1	-7%	6%	-6.2%
Cn1cccc1C(=O)N1CCC2(CCN(Cc3ccccc3)CC2)CC1	-9%	-7%	-1.4%
CC(C)NC(=O)N1CC[C@@]2(CCCN(C(=O)c3csnn3)C2)C1	-12%	4%	2.6%
O=C(c1cccc(F)c1)N1CCC[C@@]2(CCN(Cc3nccs3)C2)C1	-15%	-1%	5.4%
CCNc1ncc2nc(-c3ccc(F)cc3)c(=O)n(CCc3ccccc3)c2n1	-12%	4%	3.6%
COc1ccc(NC(=O)N2CC3(CCN(C(=O)Oc4ccccc4)CC3)C2)cc1	-7%	3%	-0.1%
Cc1noc(C)c1-c1nc(Nc2ccc(F)cc2)c2ccccc2n1	-21%	?	-0.1%
N[C@@H](Cn1cc(I)c(=O)n(Cc2ccc(C(=O)O)cc2)c1=O)C(=O)O	-4%	-3%	0.9%
COc1cccc(Cn2c(=O)c(-c3cc(F)cc(F)c3)nc3cnc(OC)nc32)c1	-5%	-2%	4.2%
O=c1c(-c2ccc(F)cc2)nc2cnc(N3CCNCC3)nc2n1-c1ccccc1	3%	?	?
Cc1nc2cncnc2n(Cc2ccccc2)c1=O	-12%	22%	1.6%
Cn1cccc1C(=O)N1CCC2(CCN(C(=O)Nc3ccccc3)CC2)CC1	-5%	-6%	-3.4%
COc1ncc2nc(-c3cn(C)c4ccccc34)c(=O)n(C)c2n1	-4%	-1%	-5.2%
CC(C)C(O)(C(=O)OC[C@@H]1CC[N+]2([O-])CCCC12)C(C)O (stereo partly drawn)	-15%	2%	4.7%
CC(=O)N1CCC2(CC1)CN(Cc1ccc(C#N)cc1)C2	2%	-10%	0.5%
N#Cc1cccc(NC(=O)N2CC3(CCN(C(=O)c4cc(C(F)(F)F)cc(C(F)(F)F)c4)CC3)C2)c1	-3%	?	-1.9%
NCCOB(c1ccccc1)c1ccccc1	30%&52%&10%[activator]	?	-7.9%&-2.1%&-1.9%
CNc1nc(-c2ccccc2OC)nc2ccccc12	-12%	-18%	2.0%

A portion of the library. The share of hits here may be higher or lower than overall.
